Sfp PPTase inh: inhibitors of Bacillus subtilis Sfp phosphopantetheinyl transferase. Potency, µM, inactives show max response, negative = inhibition, most hits filed as inhibitors. actives 3.5% (n = 310,000). Biochemical Sfp PPTase activity, qHTS; active = well fitted inhibition curve with a large enough effect; inconclusive = small, poorly fitted or top-dose-only effect, or another doubt; inactive = no such curve, though single readings can be large or run the other way;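 note: the enzyme is Sfp with the accession as filed and its product quenches rhodamine fluorescence; potency is the fitted concentration of half-maximal effect; 0% = enzyme reaction without inhibitor and -100% = no enzyme wells; top concentration of the series not given in the record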
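Buffer: 50 mM Hepes-Na pH 7.6, 10 mM MgCl2, 0.01% Nonidet P-40, 0.01% BSA. Enzyme 15 nM, pre-exposed to compound 15 min; substrates then added and fluorescence change tracked over 30 min.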
gsp antag: gsp mutant antagonism; actives 0.4% (n = 340,000); Potency, µM (titrated, usually from 76.9 µM), for inactives: at the top dose activity change, negative = inhibition, actives largely listed as inhibitors; gsp-mutant cells, cAMP HTRF, 30 min; control for the full effect not named in the record; active = falling curve of any shape with a large fitted effect; inconclusive = falling curve, mostly with a smaller effect; inactive = flat or rising curve; cell line not stated here;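 note: intracellular cAMP measured with PDE inhibitor Ro 20-1724 present during compound exposure; potency is the fitted concentration of half-maximal effect; % is set by controls: 0 for no effect and ±100 for the full control effect; nearly all actives have a fitted effect of over 65% in size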
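HTRF cAMP measurement after 30 min RT detection following 30 min, 37C compound treatment alongside […] (added as 300 uM solution) in G418-selected cells seeded at 2000/well and grown 16–24 h.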
gsp agonist: activates gsp, the McCune-Albright syndrome mutation; Potency, µM (top dose mostly 76.9 µM), for inactives: at the highest dose activation (cAMP increase), usual class: activators; actives 0.13% (n = 340,000); gsp mutant cells, cAMP HTRF, 30 min; control for the full effect not named in the record; active = well fitted activation curve with a large enough effect; inconclusive = small, poorly fitted or top-dose-only effect, or another doubt; inactive = no such curve, though single readings can be large or run the other way; cell line not stated here;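 note: phosphodiesterase inhibitor Ro 20-1724 added with compounds to block cAMP breakdown; potency is the fitted concentration of half-maximal effect; nearly all actives have a fitted effect of over 60% in size; about a fifth of the inactives were tested at one dose only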
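Cells stably selected in G418 were plated at 2000/well, grown 16-24 hr, then given compounds in DMSO with the PDE inhibitor […] (300 uM solution added) for 30 min at 37C; cAMP was read by HTRF.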
ClpP mod: qHTS Assay for Activators of ClpP | Potency, µM (top dose mostly 57.5 µM), without a hit: top-dose activity change, negative = active | purified B. subtilis ClpP, FRET peptide cleavage, 20 min | actives 1.9% (n = 340,000) | ATP-dependent Clp protease proteolytic subunit (Bacillus subtilis (strain 168)), P80244; active = well fitted falling curve with a large enough effect; inconclusive = small, poorly fitted or top-dose-only effect; inactive = no such curve, though single readings can be large or run the other way; note: potency is the fitted concentration of half-maximal effect; the source files actives as falling curves though it sought activators and does not explain the sign; nearly all actives have a fitted effect of over 65% in size; many hits overshoot -100%
Target sequence (P80244 whole entry, looked up): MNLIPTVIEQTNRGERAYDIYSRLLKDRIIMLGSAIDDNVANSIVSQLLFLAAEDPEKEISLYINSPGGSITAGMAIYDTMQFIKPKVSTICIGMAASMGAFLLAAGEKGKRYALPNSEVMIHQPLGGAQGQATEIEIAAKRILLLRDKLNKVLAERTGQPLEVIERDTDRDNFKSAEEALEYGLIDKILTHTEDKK
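FRET quenching reversal measured ClpP activation: 10 microg/mL B. subtilis ClpP at pH 8 with the FRET-FV decapeptide, read at 430 nm after 320 nm excitation. The 20-min minus 0-min signal was scaled between DMSO/no-enzyme wells and ADEP (5.8 microM final).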
TRPV1 PAM: enhances activation of the human vanilloid receptor TRPV1; Q8NER1; TRPV1-expressing cells, Fluo-8 calcium influx, capsaicin EC20 potentiation; host cell line not named in the record; control for the full effect not named in the record; potentiation, % at 8.33 µM; actives 0.02% (n = 320,000); AID 540277; active means potentiation above 80%; inconclusive means 30% to 80%; inactive means below 30%; note: 0% is about no effect
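Fluo-8 calcium influx in TRPV1-expressing cells, kinetic read (ex 480/em 520 nm). Compound added and read 3 min for agonist activity, followed by capsaicin at EC20 final and 2 min further read for enhancement.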
Menin MLL FP FL: menin-MLL binding inhibition, fluorescein peptide; Fluorescence polarization, fluorescein-MLL peptide displacement from menin; FP activity change, % at 61.4 µM; 290,000 tested, under 10 active; inconclusive = falling polarisation curve, or a change in total fluorescence; inactive = total fluorescence flat and polarisation flat or rising; no compound was filed as active; the % refers to the polarisation; negative = inhibition;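 note: % of control where 0% means no effect; inhibitors lower the polarisation; unlabelled MLL peptide was the positive control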
D2 potentiator: potentiates the human D2 dopamine receptor allosterically. actives 0.23% (n = 360,000). DiscoveRx D2 beta-arrestin cells, luminescence, 90 min; 100% = 57 uM dopamine signal. potentiation, % (no concentration beside the values). P14416; active = potentiation of 50% or more; inconclusive = 30% to 50%; inactive = 30% or less;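 note: compound concentration not given in the record; tested on top of an EC20 dose of dopamine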
Target sequence (P14416 whole entry, looked up): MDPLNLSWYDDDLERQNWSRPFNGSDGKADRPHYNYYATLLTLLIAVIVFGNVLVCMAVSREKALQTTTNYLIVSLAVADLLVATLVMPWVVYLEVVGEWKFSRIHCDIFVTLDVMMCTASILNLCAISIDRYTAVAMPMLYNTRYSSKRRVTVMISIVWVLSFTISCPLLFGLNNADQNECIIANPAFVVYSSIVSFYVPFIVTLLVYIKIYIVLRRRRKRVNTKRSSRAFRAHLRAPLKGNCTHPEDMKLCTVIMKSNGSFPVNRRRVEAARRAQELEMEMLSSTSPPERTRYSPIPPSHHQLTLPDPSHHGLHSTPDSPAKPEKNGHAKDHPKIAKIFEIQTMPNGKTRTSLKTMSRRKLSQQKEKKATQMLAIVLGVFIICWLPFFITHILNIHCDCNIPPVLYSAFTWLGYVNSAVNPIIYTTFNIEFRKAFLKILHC
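D2 cells co-treated with compound plus 50 nM dopamine (EC20) for 90 min at 37 deg C to detect potentiation. Beta-arrestin recruitment was read as enzyme-fragment luminescence after 1 h at ambient temperature. Full response was set by 57 uM dopamine.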
* hit, by the source's call; ? = inconclusive; . = not tested or not shown; [ ] = another dose, or the depositor's remark.

1: CCOC(=O)c1c(NC(=O)CSc2nnc(-c3ccc(Cl)cc3)o2)sc2c1CCC2
2: C=CCn1c(SCC(=O)NC2CCCCC2)nnc1-c1ccccn1
3: CCCCCN(C(=O)CCC(=O)OCc1ccccc1C(F)(F)F)c1c(N)n(CCCC)c(=O)[nH]c1=O
4: CC(/C=N\NC(=O)c1cc(C)oc1C)=C\c1ccccc1
5: C[C@@H]1NC(=O)c2cc([N+](=O)[O-])cc(I)c2OCC[C@@H](C(N)=O)NC(=O)[C@H](CCC(=O)O)NC1=O
6: O=C(c1cc(COc2ccc(F)c(F)c2)on1)N1CCN(C2CCCCC2)C(=O)C1
7: NS(=O)(=O)c1ccc(CCNc2cc(=O)n(Cc3ccc(F)cc3)c(=O)[nH]2)cc1
8: O=C(c1ccccc1[N+](=O)[O-])N1CCCC(C(=O)N2CCCCCC2)C1 (stereo not given)

assay / compound	1	2	3	4	5	6	7	8
Sfp PPTase inh	.	0%	7%	12%	-8%	-9%	14%	16%
gsp antag	8%	18%	-2%	-10%	.	-10%	4%	-1%
gsp agonist	-17%[15.4 µM]	-50%[inhibitor]	-10%[15.4 µM]	24%	.	-8%	-21%	-39%[inhibitor]
ClpP mod	.	0.5%	.	.	.	0.2%	-5.9%	.
TRPV1 PAM	.	11	15	9	9	-24	-3	-6
Menin MLL FP FL	.	.	.	2.6	-0.6	.	0.6	-0.1
D2 potentiator	2	13	-27	-14	.	-8	-4	0

9: CN(C)CCNC(=O)c1onc(CSc2ccc(F)cc2)c1C(=O)NCCN(C)C
10: CC(C)N1CCC2(CC1)N=C(c1ccc3c(c1)OCO3)CC(c1cc(Cl)ccc1O)N2 (stereo not given)
11: CCOc1ccc(NC(=S)N2CCC(NC(=O)C3CCCCC3)CC2)cc1
12: CCCCN(C(=O)CCC(=O)Nc1cc(C)on1)C(C(=O)NC(C)(C)CC)c1cccc(OC)c1OC (stereo not given)
13: O=C(Cn1c(NCCCO)nc2ccccc21)c1cccc(Br)c1
14: COc1ccccc1C(c1nnnn1CCc1ccccc1)N1CCN(c2ccccc2)CC1 (stereo not given)
15: O=C(NC1CC1)C1CCN(C2CCN(C(=O)CCOc3ccccc3)CC2)CC1
16: CCOC(=O)C1(Cc2cccc(Cl)c2)CCCN(C(=O)c2cc(C(C)C)nn2C)C1 (stereo not given)

assay / compound	9	10	11	12	13	14	15	16
Sfp PPTase inh	4%	-11%	12%	9%	-11%	6%	4%	-7%
gsp antag	12%	-7%	7%	7%	-2%	-8%	10%	-7%
gsp agonist	-21%	33%	-1%[15.4 µM]	-9%	21%	?	-42%	16%
ClpP mod	-2.5%	51%	.	0.1%	0.5%	0.0%	-1.5%	-1.1%
TRPV1 PAM	?	-2	2	-17	-11	-2	-8	?
Menin MLL FP FL	2.9	1.4	-9.8	3.1	0.6	3.6	-3.8	.
D2 potentiator	-8	-45	-7	-3	-9	-2	-2	15

17: O=C(Nc1nnc(-c2cccnc2)s1)c1cccs1
18: Cn1c(CSCCOc2ccccc2)n[nH]c1=S
19: O=C(c1ccco1)N1CCN(C(=O)c2cnn3c2NC(c2cccs2)CC3C(F)(F)F)CC1 (stereo not given)
20: O=C(OCc1ccc(Br)cc1F)c1cc2ccccc2oc1=O
21: CCOC(=O)N1CCC(NC(=O)CSc2cc(=O)n(CC)c3ccccc23)CC1
22: CCCCNC(=O)c1onc(CSc2cccc(C)c2)c1C(=O)O
23: O=C(c1ccc(Cl)cc1Cl)N1CCN(c2ccc(N3CCOCC3)nn2)CC1
24: Cc1nnc(SCC(=O)Nc2ncc3c(n2)CC(c2ccccc2)CC3=O)s1 (stereo not given)

assay / compound	17	18	19	20	21	22	23	24
Sfp PPTase inh	-14%	-7%	15%	0%	7%	17%	.	15%
gsp antag	11%	2%	-12%	0%	-23%	-20%	-7%	4%
gsp agonist	?	-17%	-9%	-27%	?	.	-74%[inhibitor]	8%
ClpP mod	?	.	-1.8%	.	?	-0.1%	-28%	-2.8%
TRPV1 PAM	3	-18	4	19	7	18	-15	-19
Menin MLL FP FL	-6.6	2.4	5.1	-0.4	-5.5	5.1	.	-1.9
D2 potentiator	-6	-5	-9	0	-18	1	3	-7

25: O=C(c1cccc(Cl)c1)N1CCC2(CC1)NCCc1[nH]cnc12
26: CC(=O)c1ccc(NC(=O)C(C)OC(=O)C2CC(=O)N(c3ccc4c(c3)OCCO4)C2)cc1 (stereo not given)
27: C=CCn1c2ccccc2c2nnc(SCc3[nH]c(=O)[nH]c3C(=O)CCCCC(=O)OCC)nc21
28: CC(C)(C)c1ccc(OCCCC(=O)Nc2cccc(S(=O)(=O)N3CCOCC3)c2)cc1
29: CCN(CC)CCn1c(=N)n(CC(O)c2ccc(OC)c(OC)c2)c2ccccc21 (stereo not given)
30: COc1cccc(C(=O)CSc2nnc(CNS(C)(=O)=O)n2-c2ccc(C)cc2)c1
31: COC(=O)c1ccc(CNC(=O)COC(=O)CCC2CCCC2)cc1
32: O=C(CSCc1ccc(Cl)cc1)N/N=C/c1ccccc1

assay / compound	25	26	27	28	29	30	31	32
Sfp PPTase inh	0%	7%	-24%	.	-1%	-27%	3%	-7%
gsp antag	?	-13%	4%	-22%	-2%	7%	5%	-1%
gsp agonist	19%	-1%	2µM*	-30%[inhibitor]	32%	-14%	-12%	24%
ClpP mod	-3.1%	0.2%	-1.4%	-1.6%	-2.4%	-1.4%	0.9%	-5.0%
TRPV1 PAM	7	-4	1	-19	6	3	-27	1
Menin MLL FP FL	.	-0.2	5.2	.	-1.1	3.3	-1.9	-1.0
D2 potentiator	-6	-4	-6	-9	-2	-3	-3	-3

33: COc1cc(NC(=O)C2CC(=O)N(Cc3ccco3)C2)c(OC)cc1Cl (stereo not given)
34: CCSc1ccc(-c2nn(-c3ccccc3)cc2/C=C(/C#N)C(=O)NCCCOC)cc1
35: COc1ccc2c(c1)OC[C@H]1[C@H]2N2C(=O)CN(Cc3ccco3)C(=O)[C@@]2(C)[C@H]1c1ccccc1
36: COc1ccc(Cl)cc1CC=NNC(=O)c1ccncc1
37: NC(=O)c1c(NC(=O)c2ccccc2Cl)sc2c1CCC2
38: Nc1nonc1-n1nnc(C(=O)N/N=C/c2ccccn2)c1CNc1ccccc1
39: CC(C)CCN(C(=O)C1=COCCO1)c1c(N)n(Cc2ccccc2)c(=O)[nH]c1=O
40: O=C(NCCCNC(=O)c1ccco1)c1ccco1

assay / compound	33	34	35	36	37	38	39	40
Sfp PPTase inh	.	7%	.	.	-9%	9%	.	10%
gsp antag	-1%	1%	-16%	-3%	-14%	-8%	1%	2%
gsp agonist	0%	8%[15.4 µM]	24%	-22%	-22%	?	-11%[15.4 µM]	10%
ClpP mod	1.1%	0.3%	1.6%	6.0%	-1.2%	0.5%	?	0.7%
TRPV1 PAM	15	-6	7	.	1	-4	6	16
Menin MLL FP FL	.	1.7	.	.	-0.7	.	.	7.2
D2 potentiator	-16	-4	-15	-13	3	-2	-9	5

41: CCN1CCN(Cc2nc3c(c(=O)n(C)c(=O)n3C)n2CCc2ccccc2)CC1
42: CCOC(=O)c1c(C)nc2sc3c(=O)n(-c4ccc(OC)cc4)nnc3c2c1-c1ccc(OC)cc1
43: O=C(NNC(=S)NC(=O)c1cn(-c2ccccc2)nc1-c1ccccc1)c1ccncc1
44: N#CCCN(C(=O)COC(=O)CCC(=O)c1cccs1)c1ccccc1
45: CC1C(=O)N(Cc2cn(Cc3ccco3)nn2)CCS(=O)(=O)N1Cc1ccc(-c2cccc(N(C)C)c2)cc1 (stereo not given)
46: CCC(=O)N1CCCc2cc(S(=O)(=O)CCC(=O)Nc3ccccc3C)ccc21
47: CCOC(=O)c1ccc(S(=O)(=O)N2CCC(C(=O)Nc3nnc(C)o3)CC2)cc1
48: CCN1C(=O)CC(C(=O)NCCc2ccc(S(N)(=O)=O)cc2)SC1=Nc1ccc(OC)cc1 (stereo not given)
49: OCCCc1cn(-c2ccccc2)c2ccccc12
50: CC(=O)Nc1ccc(OCC(O)CN2CCN(c3ccccc3Cl)CC2)cc1 (stereo not given)

assay / compound	41	42	43	44	45	46	47	48	49	50
Sfp PPTase inh	8%	-16%	-7%	.	.	3%	.	3%	19%	7%
gsp antag	10%	-19%	?	5%	.	3%	-3%	-8%	-5%	10%
gsp agonist	-51%[inhibitor]	9%	-11%	-27%	-3%	?	-10%	27%[15.4 µM]	0%[15.4 µM]	-20%[15.4 µM]
ClpP mod	-0.2%	0.5%	6.3%	-1.4%	4.3%	-0.7%	-1.8%	.	.	-1.9%
TRPV1 PAM	6	.	-6	.	.	-16	-12	?	-1	-7
Menin MLL FP FL	0.6	4.4	-4.3	.	.	.	.	-2.3	3.0	-5.9
D2 potentiator	-2	3	-9	0	-5	-8	-10	-3	-7	-33

Part of the list above in order of molecular weight, rising:
50: CC(=O)Nc1ccc(OCC(O)CN2CCN(c3ccccc3Cl)CC2)cc1 (stereo not given)
41: CCN1CCN(Cc2nc3c(c(=O)n(C)c(=O)n3C)n2CCc2ccccc2)CC1
46: CCC(=O)N1CCCc2cc(S(=O)(=O)CCC(=O)Nc3ccccc3C)ccc21

assay / compound	50	41	46
Sfp PPTase inh	7%	8%	3%
gsp antag	10%	10%	3%
gsp agonist	-20%[15.4 µM]	-51%[inhibitor]	?
ClpP mod	-1.9%	-0.2%	-0.7%
TRPV1 PAM	-7	6	-16
Menin MLL FP FL	-5.9	0.6	.
D2 potentiator	-33	-2	-8

In the list so far, these contain bromine:
13: O=C(Cn1c(NCCCO)nc2ccccc21)c1cccc(Br)c1
20: O=C(OCc1ccc(Br)cc1F)c1cc2ccccc2oc1=O

assay / compound	13	20
Sfp PPTase inh	-11%	0%
gsp antag	-2%	0%
gsp agonist	21%	-27%
ClpP mod	0.5%	.
TRPV1 PAM	-11	19
Menin MLL FP FL	0.6	-0.4
D2 potentiator	-9	0
